rRNA inh HTS – inhibitors of bacterial rRNA selective over humanized ribosomes; AID 720706; GFP signal change (wild-type ribosome), % (test concentration not listed); actives 1.6% (n = 350,000); E. coli WT GFP vs humanized-ribosome RFP mutants, fluorescence, 24 h; hits give low values; DMSO median 0, no signal -100;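 active = significant combined selectivity score with lowered wild-type GFP, culture density cut under 30%, mutant RFP and density less affected; inactive = any of these conditions unmet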; also: one replicate is shown; some compounds called inactive have numbers as strong as hits
rRNA inh HTS OD600 – further read-out of rRNA inh HTS, marked with its call; OD600 change, %; measured here: OD600 growth;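 optical density of the mix in the first replicate; 0 = DMSO median and -100 = no signal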
rRNA inh HTS RFP – also measured in rRNA inh HTS; calls as there; RFP signal change, %; measured here: RFP humanized mutant strains;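 first replicate; 0 = DMSO median and -100 = no signal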
Starred values were filed as active, the others as inactive; i = inactive; nt = not tested or not shown; & = joins results of further samples. Some of the compounds tested; rates above refer to the full screens.

Compound | rRNA inh HTS | rRNA inh HTS OD600 | rRNA inh HTS RFP
O=S(=O)(N[C@@H]1CC[C@@H](CCn2cc(C3(O)CCCC3)nn2)O[C@H]1CO)c1ccccc1 | -0.2 | 0.2 | 0.8
C[C@H](CO)N1C[C@H](C)[C@H](CN(C)CC2CC2)Oc2cc(C#Cc3ccncc3)ccc2S1(=O)=O | 0.3 | 5.0 | 0.2
O=C(C1CCC1)N1C[C@@H]2[C@H](c3ccccc31)[C@H](CO)N2S(=O)(=O)c1ccccc1 | 0.6 | -8.0 | -2.7
C/C=C/c1cnc2c(c1)C(=O)N([C@@H](C)CO)C[C@H](C)[C@H](CN(C)S(=O)(=O)c1ccc(F)cc1)O2 | -2.0 | -0.1 | -1.5
C[C@H]1CN([C@@H](C)CO)C(=O)c2cc(C#CCC3CCCC3)cnc2O[C@H]1CN(C)Cc1ccccn1 | -20.9 | -57.2 | 27.4
C/C=C/c1ccc([C@H]2[C@@H](CO)N[C@@H]2CNC(=O)C2CC2)cc1 | -1.0 | 9.9 | -1.6
CC(C)NC(=O)N1CC2(C1)[C@H](c1ccccc1)[C@@H](CO)N2C(=O)C1CC1 | -0.4 | 3.5 | -3.3
C[C@@H]1CN([C@@H](C)CO)C(=O)Cc2cc(NC(=O)Nc3cccc4ccccc34)ccc2O[C@@H]1CN(C)Cc1ccccc1 | 0.2 | -8.8 | 6.9
COc1ccc(NC(=O)N(C)C[C@H]2OCCCC[C@@H](C)Oc3ccc(N(C)C)cc3C(=O)N([C@H](C)CO)C[C@H]2C)cc1 | -0.8 | 4.5 | -1.4
COc1ccc2c3c([nH]c2c1)[C@H](CO)N(Cc1ccccc1Cl)CC31CN(C(C)=O)C1 | -1.2 | -10.8 | -1.9
CCCNC(=O)N1C[C@@H](O)COC[C@@H]2O[C@H](CC(=O)O)CC[C@H]21 | 0.2 | 5.7 | -1.9
COc1cccc(S(=O)(=O)Nc2ccc3c(c2)[C@@H]2C[C@H](CC(=O)NCC(F)(F)F)O[C@@H](CO)[C@@H]2O3)c1 | 1.3 | -20.7 | 28.9
COCC(=O)NC[C@H]1[C@H](c2ccc(C3=CCCC3)cc2)[C@H](CO)N1C(=O)C1CC1 | -2.1 | 2.1 | -2.2
CCCNC(=O)[C@@H]1[C@@H](CO)[C@@H]2Cn3c(cccc3=O)[C@@H]2N1C(=O)C1CCCC1 | 1.2 | 3.4 | -1.4
CC(C)(C)C(C(=O)NCc1ccccc1)N1CCN(CCN2CCOCC2)CC1 (stereo unspecified) | 5.8 | 3.5 | -6.6

Two compounds picked at random from those above, as already listed:
Compound | rRNA inh HTS | rRNA inh HTS OD600 | rRNA inh HTS RFP
CC(C)NC(=O)N1CC2(C1)[C@H](c1ccccc1)[C@@H](CO)N2C(=O)C1CC1 | -0.4 | 3.5 | -3.3
C/C=C/c1cnc2c(c1)C(=O)N([C@@H](C)CO)C[C@H](C)[C@H](CN(C)S(=O)(=O)c1ccc(F)cc1)O2 | -2.0 | -0.1 | -1.5

Continuation.
Compound | rRNA inh HTS | rRNA inh HTS OD600 | rRNA inh HTS RFP
COCC(=O)N(C)C[C@@H]1Oc2cc(-c3ccc(F)cc3)ccc2S(=O)(=O)N([C@H](C)CO)C[C@@H]1C | -2.3 | -9.0 | -1.0
COc1ccccc1NC(=O)N(C)C[C@H]1OCc2ccccc2-c2c(n(C)c3ccccc23)C(=O)N([C@H](C)CO)C[C@@H]1C | 0.7 | 3.4 | 7.4
CC(C)NC(=O)N[C@H]1CC[C@H](CCNC(=O)C2CCOCC2)O[C@H]1CO | 2.0 | 5.2 | -0.7
C[C@@H]1CN([C@H](C)CO)C(=O)Cc2cc(NS(=O)(=O)c3ccccc3)ccc2O[C@H]1CN(C)Cc1ccccc1 | -3.9 | -5.0 | 1.0
CCCNC(=O)[C@H]1[C@H](CO)[C@H]2Cn3c(ccc(-c4ccccc4OC)c3=O)[C@H]2N1S(C)(=O)=O | 0.2 | -1.3 | 1.5
O=C(C[C@H]1C=C[C@H](NC(=O)C2CC2)[C@H](CO)O1)Nc1nccs1 | 0.0 | 4.1 | 0.0
C[C@H](CO)N1C[C@H](C)[C@@H](CN(C)Cc2ccc(C(=O)O)cc2)Oc2ccc(NC(=O)Cn3cnnn3)cc2CC1=O | 0.3 | 5.7 | -0.7
CN1CCN(C(=O)C[C@H]2CC[C@@H]3[C@H](COC[C@@H](O)CN3C(=O)Nc3ccc4c(c3)OCO4)O2)CC1 | i | nt | nt
CCC1NC(=O)c2cc3ccccc3cc2-n2c1nc1ccc(F)cc1c2=O (stereo unspecified) | -6.8 | -18.8 | 1.7
O=C(Nc1ccccc1)[C@@H]1[C@@H](CO)[C@@H]2Cn3c(cccc3=O)[C@@H]2N1CC1CC1 | -0.5 | 5.6 | -1.2
CN(C)c1ccc(CC(=O)N2CCCC(c3cc(C(=O)Nc4ccc(F)c(Cl)c4)no3)C2)cc1 (stereo unspecified) | -13.4 | -12.5 | 1.2
O=C(C1CCOCC1)N1C[C@@H]2[C@H](c3ccccc31)[C@H](CO)N2C(=O)c1ccccc1 | 2.9 | 2.6 | -3.0
OC[C@H]1[C@@H](c2ccc(C#Cc3ccccc3)cc2)[C@@H]2CN(Cc3cncnc3)CCCCN12 | 4.1 | -31.8 | 2.0
COc1ccc(C[C@H]2CCn3cc(nn3)COC[C@H](C(C)C)NC2=O)cc1 | 2.1 | -4.3 | 0.1
COc1ccc(S(=O)(=O)Nc2ccc3c(c2)C(=O)N([C@@H](C)CO)C[C@@H](C)[C@H](CN(C)S(=O)(=O)c2cn(C)cn2)OCCCC[C@H](C)O3)cc1 | -4.2 | 2.5 | 0.2

The list goes on.
Compound | rRNA inh HTS | rRNA inh HTS OD600 | rRNA inh HTS RFP
CCN(CC)S(=O)(=O)c1ccc(SCC(=O)c2c(N)n(C3CC3)c(=O)[nH]c2=O)nc1 | 7.1 | 7.5 | 0.1
CN(C)CC#Cc1ccc([C@H]2[C@H](CO)N3C(=O)CN(C(=O)c4ccc(F)cc4)C[C@@H]23)cc1 | 2.3 | 6.6 | 1.2
COc1cccc(CN2[C@@H]3CN(C(=O)c4ccncc4)c4ccccc4[C@@H]3[C@@H]2CO)c1 | -1.5 | -3.0 | -4.8
O=C(C[C@H]1CC[C@H]2[C@@H](COC[C@H](O)CN2Cc2cc(F)ccc2F)O1)NCc1ccc(Cl)cc1 | -10.3 | -37.2 | 16.5
COc1ccc(S(=O)(=O)N(C)C[C@@H]2Oc3cc(-c4cccc(F)c4)ccc3S(=O)(=O)N([C@H](C)CO)C[C@H]2C)cc1 | -0.3 | 5.8 | -2.1
COc1ccc2c3c(n(C)c2c1)[C@H](CO)N(S(=O)(=O)c1ccc(C)cc1)CC31CCN(C)CC1 | 0.0 | 6.0 | 1.4
COc1ccc(NC(=O)N(C)C[C@@H]2Oc3c(NS(=O)(=O)c4ccc(C)cc4)cccc3C(=O)N([C@@H](C)CO)C[C@H]2C)cc1 | -0.2 | -2.3 | -2.6
O=C(CN1CCOCC1)N[C@H]1CC[C@H](CCNC(=O)C2CCCCC2)O[C@H]1CO | 5.6 | 8.4 | -0.3
C[C@@H]1CN([C@H](C)CO)C(=O)Cc2cc(NC(=O)CCCN(C)C)ccc2O[C@H]1CN(C)CC1CCCCC1 | 5.0 | 15.4 | -0.8
C[C@H](CO)N1C[C@H](C)[C@@H](CN(C)S(=O)(=O)c2ccc(Oc3ccccc3)cc2)OCc2cnnn2CCCC1=O | 3.3&5.1 | 7.5&-5.3 | -1.1&8.7
CNC[C@@H]1OCCCC[C@H](C)Oc2ccc(NC(=O)CCC(F)(F)F)cc2C(=O)N([C@H](C)CO)C[C@@H]1C | 5.5 | 4.1 | -1.9
COc1ccccc1CN1C[C@H](C)[C@H](OC)CN(C)C(=O)c2cc(NC(C)=O)ccc2OC[C@@H]1C | 2.4 | -3.6 | -1.3
C[C@H]1CN([C@@H](C)CO)C(=O)c2cc(/C=C/c3ccccc3)cnc2O[C@@H]1CN(C)Cc1cccc(C(=O)O)c1 | -0.5 | 13.6 | -5.5
O=C1CNc2cc(Cl)ccc2N1 | 9.2 | 11.8 | -0.7
COc1ccc2c3c([nH]c2c1)[C@H](CO)N(Cc1ccccc1F)CC31CN(C(=O)C2CCCC2)C1 | -6.3 | -18.0 | 4.6

Other entries.
Compound | rRNA inh HTS | rRNA inh HTS OD600 | rRNA inh HTS RFP
CN1CCN(C(=O)C[C@H]2CC[C@@H]3[C@H](COC[C@@H](O)CN3C(=O)Nc3ccc(Cl)cc3)O2)CC1 | -27.4* | -14.4* | 5.5*
O=C(C[C@@H]1C[C@H]2c3cc(NC(=O)Nc4ccc(F)cc4)ccc3O[C@H]2[C@H](CO)O1)NC1CCCC1 | -6.3 | -2.4 | 1.7
C[C@@H]1CCCCO[C@H](CN(C)C(=O)CCCN(C)C)[C@@H](C)CN([C@H](C)CO)C(=O)c2cc(NC(=O)Nc3ccc4c(c3)OCO4)ccc2O1 | 2.2 | 8.6 | -3.2
CCC(=O)N(C)C[C@@H]1Oc2cc(C#CC3CCCC3)ccc2S(=O)(=O)N([C@@H](C)CO)C[C@@H]1C | 1.1 | -8.3 | 1.2
O=C(NCc1ccccc1)[C@@H]1CCCN1C(=O)[C@H]1CCCN1C(=O)N1CCCCC1 | 0.7 | 4.4 | -0.9
O=C(Cc1ccccn1)N1CC(=O)N2[C@H](C1)[C@H](c1ccc(C#CC3CC3)cc1)[C@@H]2CO | 2.6 | -1.8 | 2.1
CCCN1C[C@@H](C)[C@@H](OC)CN(C)C(=O)c2cc(NC(=O)c3cccc(OC)c3)ccc2OC[C@H]1C | 0.1 | -7.2 | -3.4
CCN=C1NC(c2ccc(C(F)(F)F)cc2)C(C(=O)OC)=C(C)N1Cc1cccc(C(F)(F)F)c1 (stereo unspecified) | -44.5 | -79.4 | -17.0
CC(C)c1cn(CC[C@@H]2CC[C@@H](NS(=O)(=O)Cc3ccccc3)[C@@H](CO)O2)nn1 | 3.1 | 5.9 | -0.5
CNC[C@H]1Oc2cc(C#Cc3ccccc3F)ccc2S(=O)(=O)N([C@H](C)CO)C[C@@H]1C | 1.1 | -0.3 | 3.5
CN(C)CC(=O)Nc1ccc2c(c1)[C@H]1C[C@@H](CC(=O)NCc3ccc(-c4ccccc4)cc3)O[C@H](CO)[C@H]1O2 | -7.1 | -19.2 | 10.8
C[C@H]1CN([C@@H](C)CO)C(=O)Cc2cc(NC(=O)CCCCCC(=O)Nc3ccccc3N)ccc2O[C@@H]1CN(C)S(=O)(=O)c1ccc(F)cc1 | 0.7 | -2.6 | -2.1
C[C@H](CO)N1C[C@H](C)[C@@H](CN(C)Cc2ccncc2)Oc2ccc(NS(=O)(=O)c3cccs3)cc2C1=O | -5.7 | 4.6 | -1.8
C[C@@H]1CN([C@@H](C)CO)C(=O)c2c(c3ccccc3n2C)-c2ccccc2CO[C@H]1CN(C)C(=O)Nc1ccc2c(c1)OCO2 | -0.3 | 5.0 | 1.9
CN1C(=O)c2cc(NC(=O)c3cnccn3)ccc2OC[C@@H]2O[C@H](CC(=O)N[C@H]3CCN(Cc4ccccc4)C3)CC[C@@H]21 | -1.5 | -3.9 | 0.7

More results follow.
The line under a structure holds: rRNA inh HTS	rRNA inh HTS OD600	rRNA inh HTS RFP
- C[C@@H]1CCCCO[C@@H](CN(C)Cc2ccccc2)[C@H](C)CN([C@@H](C)CO)C(=O)c2cc(NS(=O)(=O)c3ccccc3)ccc2O1
    1.6	2.3	2.6
- COc1ccc(S(=O)(=O)N(C)C[C@@H]2Oc3c(NC(=O)Nc4ccc5c(c4)OCO5)cccc3C(=O)N([C@H](C)CO)C[C@H]2C)cc1
    -3.0	3.1	0.8
- C[C@H]1CN([C@@H](C)CO)C(=O)Cc2cc(NC(=O)C3CC3)ccc2O[C@H]1CN(C)S(=O)(=O)c1cn(C)cn1
    1.3	1.6	-4.9
- C[C@H]1CN([C@@H](C)CO)C(=O)CCCn2nncc2CO[C@@H]1CN(C)S(=O)(=O)c1ccc(C#N)cc1
    1.0	0.9	-1.7
- CCOC(=O)CCCN(c1[nH]c(C)c(C)c1C#N)S(=O)(=O)c1ccc(C)cc1
    -11.4	-13.8	-0.8
- CC(C)NC(=O)C1(C)CCN1Cc1ccc(Cl)cc1 (stereo unspecified)
    7.2	14.8	-0.2
- CC(=O)Oc1ccccc1Cn1c(C)c(C(=O)N(C)Cc2ccc(F)cc2)sc1=O
    1.2	-4.1	-8.0
- CC(C)[C@@H]1COCc2cn(nn2)CC[C@H](Cc2ccc(-c3ccccc3)cc2)C(=O)N1
    -2.5	0.9	-0.2
- C[C@H]1CN([C@@H](C)CO)C(=O)c2cc(C#CCC3CCCC3)cnc2O[C@@H]1CN(C)C(=O)CN(C)C
    1.0	0.1	-2.8
- CC[C@H]1C/C=C\CCNC(=O)CCC(=O)N1
    0.2	7.0	-0.7
- Fc1cccc(CN2[C@@H]3CNC[C@H]2C3c2ccc(-c3ccncc3)cc2)c1 (stereo partly specified)
    0.8&-1.3	-7.0&-2.4	2.4&-0.6
- C[C@H](CO)N1C[C@H](C)[C@H](CN(C)S(=O)(=O)c2cccs2)Oc2ncc(C#Cc3ccc(C(F)(F)F)cc3)cc2C1=O
    3.7	6.9	-3.6
- C[C@@H]1CN([C@H](C)CO)C(=O)c2cccc(N(C)C)c2O[C@@H]1CN(C)C(=O)NC1CCCCC1
    -0.6	1.6	-2.3
- C[C@@H]1CCCCO[C@H](CN(C)C(=O)CCC(F)(F)F)[C@H](C)CN([C@@H](C)CO)C(=O)c2cc(N(C)C)ccc2O1
    -1.1	-3.0	-3.8
- C[C@H]1CN([C@@H](C)CO)C(=O)c2cc(NC(=O)Nc3cccc4ccccc34)ccc2O[C@@H]1CN(C)S(C)(=O)=O
    -3.5	-5.0	-0.4
- Cc1ccc(S(=O)(=O)N(C)C[C@@H]2Oc3c(NS(C)(=O)=O)cccc3C(=O)N([C@H](C)CO)C[C@H]2C)cc1
    -0.8	1.9	2.0
- COc1ccc2c3c([nH]c2c1)[C@@H](CO)N(C(=O)c1ccccc1)CC31CN(C(=O)Nc2cccc(F)c2)C1
    -5.6	1.2	5.8

Bioassay records as filed in PubChem BioAssay.
